Screens from PubChem BioAssay.
HCMV NEC inh: inhibitors of HCMV UL50-UL53 interaction, biochemical, HTRF; HCMV UL50-UL53 nuclear egress complex (human cytomegalovirus); normalized percent inhibition; inhibition, % (test concentration not listed); actives 0.15% (n = 190,000); AID 1918969, 2023;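 active = both replicates at 50% or more, plus weaker picks with an unusually low signal ratio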;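 note: stock transfer was 100 nL into about 20 µL; 0% = negative control wells and 100% = wells with untagged competitor protein; inactives centre near -12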
Sa growth 42C: S. aureus growth inhibition at 42 and 30 °C, primary screen, LtaS inhibitor project, RN4220, two temperatures; OD600, 20 h, 42 °C; active compounds read low; relative growth, % (test concentration not listed); actives 0.53% (n = 170,000);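 active = growth at 42 °C up to 50% and 20 or more points under that at 30 °C, or under 10% at both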;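 note: 300 nL library stock went into each well; scaled to the means of positive and negative controls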
GIV-Gai inh: inhibitors of GIV peptide binding to Galpha-i3, primary screen, biochemical, fluorescence polarization, FITC-GIV GBA peptide, rat Galphai3. actives 0.42% (n = 210,000). percent of control (FP), % (concentration not given with the values). AID 1224905, 2016. 90 min; active compounds read low; scaled: aluminum fluoride 0%, vehicle 100%. Guanine nucleotide-binding protein G(i) subunit alpha-3 (Rattus norvegicus), P08753;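 active = replicate mean at 85% of control or lower, very high polarization wells dropped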;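 note: wells of about 15 µL received 100 nL stock; the first replicate is given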
Target sequence (P08753 whole entry, looked up): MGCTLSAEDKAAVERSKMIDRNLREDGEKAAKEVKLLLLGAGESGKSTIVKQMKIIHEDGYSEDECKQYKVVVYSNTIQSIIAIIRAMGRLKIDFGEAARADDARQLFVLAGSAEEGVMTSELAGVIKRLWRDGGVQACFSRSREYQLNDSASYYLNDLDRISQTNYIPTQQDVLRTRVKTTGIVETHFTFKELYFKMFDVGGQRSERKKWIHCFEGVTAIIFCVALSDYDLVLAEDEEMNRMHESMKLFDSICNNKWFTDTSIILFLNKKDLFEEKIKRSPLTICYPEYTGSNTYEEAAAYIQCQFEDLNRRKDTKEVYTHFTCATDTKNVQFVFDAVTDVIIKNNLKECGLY
Sa growth 42C second temp: further read-out of Sa growth 42C, marked with its call; relative growth, %; measured here: growth at 30 °C;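 optical density after 20 h as mean of two plates; 100% = untreated growth and lower means inhibition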
An asterisk follows results filed as active; x = not tested or not shown. Rows are unselected; 0.79% or so of the library scored in one or more.

Every second line gives: Sa growth 42C second temp, GIV-Gai inh, HCMV NEC inh, Sa growth 42C
> Cc1cc(C)c(S(=O)(=O)Nc2cc3c4c(oc3c3ccccc23)CCCC4=O)cc1C
 : 75.8, 97.7, x, 92.0
> Cc1ccc(S(=O)(=O)N(C2CCCC2)S(=O)(=O)c2ccc(Br)s2)cc1C
 : 83.5, x, -4.6, 69.2
> COc1ccc(C(=O)N2C(=O)c3ccc(N)cc3C2=O)cc1
 : 90.9, x, -12.9, 101.1
> O=C(Nc1ccc(C(F)(F)F)cc1Cl)c1ccc(Cn2cc(Br)cn2)o1
 : 81.4, 103.6, x, 88.4
> CC(C)NC(=O)c1cc(-c2ccc(Br)cc2)on1
 : 82.5, 107.7, -5.8, 96.5
> CCCCn1c(SCc2ccccc2C#N)nc2c(sc3ccccc32)c1=O
 : 95.9, 102.0, x, 82.6
> COc1ccc(C2CCCN2C(=O)NC2CCCC2)cc1 (stereo unspecified)
 : x, 103.4, -32.4, x
> CC(CNC(=O)CCc1cn(Cc2ccccc2Cl)c2ccccc12)c1ccccc1 (stereo unspecified)
 : 92.9, 110.5, x, 97.9
> Cc1cc(C)c2c(c1)C(Cc1ccc(Br)cc1)C(=O)N2 (stereo unspecified)
 : x, 103.1, -17.1, x
> Cc1oc(-c2ccc(Cl)cc2)nc1Cn1c(=O)cc(C)c2c(C)nn(-c3cccc(F)c3)c21
 : 94.1, 105.4, x, 95.4
> Cc1cccc(CN2C(=O)c3oc4ccccc4c3OCC2(C)C(=O)NC2CCCC2)c1 (stereo unspecified)
 : x, 102.2, -35.5, x
> CCS(=O)(=O)N1CCCC(c2nc3c(nnn3Cc3ccc(C)cc3)c(=O)[nH]2)C1 (stereo unspecified)
 : 89.3, 96.5, -13.4, 96.5
> Cc1ccc(-c2nc3cnccn3c2Nc2ccc3c(c2)OCO3)o1
 : 85.7, 110.0, -18.7, 87.3
> CCCC(CCC)C(=O)OC1CC2CCC(C1)[N+]2(C)C (stereo unspecified)
 : x, 103.0, 15.8, x
> Cc1cc2c(c(SCC(=O)c3ccccc3)n1)C(=O)OC2
 : 81.8, 100.1, -21.7, 98.8
> COc1ccc(Cl)cc1NC(=O)COC(=O)C12CC3CC(CC(O)(C3)C1)C2
 : 100.2, x, 3.0, 110.2
> O=C(Cn1nc(-c2ccc(Cl)cc2)c2ccccc2c1=O)NCCN1CCOCC1
 : 83.6, 102.0, -4.8, 107.6
> COc1ccc(OCc2nnc3sc(-c4ccc(OC)cc4OC)nn23)cc1
 : x, 104.1, -12.7, x
> CN1/C(=C\C(=O)CN2C(=O)NC3(CCc4ccccc43)C2=O)C(C)(C)c2ccccc21 (stereo unspecified)
 : -0.5*, x, -35.5, -0.9*
> CSCCC(N)c1nc2ccccc2[nH]1 (stereo unspecified)
 : 93.5, x, 2.6, 90.5
> O=C1/C(=N\O)CCc2c1no[n+]2[O-]
 : 62.5, 96.7, -43.4, 90.6
> COc1c(O)cccc1-c1nnn(CCC(=O)OCC(=O)c2ccccc2)n1
 : 101.2, 101.0, -20.1, 102.3
> Cc1ccc(S(=O)(=O)N2CCC[C@H]2C(=O)OCc2c(C)noc2C)cc1
 : 89.7, x, -21.2, 101.0
> O=C1N[C@H](C(=O)O)C1Cc1ccccc1 (stereo partly specified)
 : 109.0, x, -10.9, 100.8
> CC1Cc2ccccc2N1S(=O)(=O)c1nnc(NC(=O)c2ccccc2)s1 (stereo unspecified)
 : 45.8, 99.5, -18.0, 95.3
> O=C(O)Cc1c(-c2ccc(Cl)cc2)nc2ccccc2c1C(=O)O
 : 88.5, 104.8, 1.7, 97.0
> c1cc(-c2csnn2)ccc1-c1csnn1
 : 67.5, 101.8, -1.1, 100.0
> NC(=O)C1CCN(C(=O)c2ccc(F)cc2F)CC1
 : 90.1, x, 0.6, 120.4
> COC(=O)c1c[nH]n2c(=O)c3c(nc12)CCC3
 : 89.6, 106.4, x, 90.8
> CCn1c(=S)[nH]c2sc3c(c2c1=O)CCN(C)C3
 : x, 120.3, -43.1, x
> COC(=O)c1sc(C(C)(C)C)cc1NC(=O)Nc1ccc(Cl)cc1
 : 85.2, 96.3, 9.9, 67.7
> CCOc1cc(C2c3c(oc4ccccc4c3=O)C(=O)N2Cc2ccc3c(c2)OCO3)ccc1O (stereo unspecified)
 : 96.2, 98.3, -26.2, 103.6
> COC(=O)C1=C(C)NC2=C(C(=O)CCC2)C1c1ccc2c(c1)OCC2 (stereo unspecified)
 : 84.1, 98.9, -42.8, 108.1
> CCSC1=C(C#N)C(=O)NCS1
 : 91.3, 117.5, x, 98.3
> CCN(C(=O)CSc1nnc(C(F)(F)F)n1C)C1=CCCC1
 : 89.3, x, -8.1, 101.6
> CCOc1ccc2ccc(=O)oc2c1
 : 99.9, x, -6.5, 103.0
> Cc1ccc2sc(N3CCN(C(=O)C4COc5ccccc5O4)CC3)nc2c1C (stereo unspecified)
 : 92.3, 100.3, x, 115.3
> COc1ccc(C(=O)O)cc1Nc1nc2ccc(C)cc2n2cnnc12
 : 100.4, 105.6, -27.9, 92.2
> CCc1ccc(-n2nc(C)c3c(C)cc(=O)n(CC(=O)N(CC)Cc4ccccc4)c32)cc1
 : 94.4, 98.7, x, 88.7
> CC1(C)CCCC2=C1CC1C(=O)N(O)C(=O)C1C2 (stereo unspecified)
 : 103.6, 96.5, -30.7, 135.2

Next part, overlapping the part above by 2 compounds.
Every second line gives: Sa growth 42C second temp, GIV-Gai inh, HCMV NEC inh, Sa growth 42C
> CCc1ccc(-n2nc(C)c3c(C)cc(=O)n(CC(=O)N(CC)Cc4ccccc4)c32)cc1
 : 94.4, 98.7, x, 88.7
> CC1(C)CCCC2=C1CC1C(=O)N(O)C(=O)C1C2 (stereo unspecified)
 : 103.6, 96.5, -30.7, 135.2
> CC(C(=O)OCC(=O)c1ccc2c(c1)OCCO2)N1C(=O)c2ccccc2C1=O (stereo unspecified)
 : 96.3, x, 3.4, 103.2
> CCOC(=O)c1[nH]c(=O)[nH]c1COC(=O)CNC(=O)c1ccccc1
 : 86.2, x, -15.0, 83.3
> Cn1c(-c2ccccc2)c(C(=O)CN2CCOCC2)c2ccccc21
 : 91.4, x, -23.8, 93.2
> Cn1c(=O)c2c(ncn2CCCN)n(C)c1=O
 : 87.3, 100.4, -14.3, 87.2
> O=C(CSc1ncc2c(n1)-c1ccc(Cl)cc1N(Cc1ccccc1)S2(=O)=O)Nc1ccccc1C(F)(F)F
 : 73.1, 103.2, x, 80.9
> CCOc1ccc(CC(=O)Nc2cccc(N3CCCS3(=O)=O)c2)cc1
 : x, 100.6, -0.3, x
> COCCCNC(=O)c1ccc(Cn2c(=O)c3cccn3c3cccnc32)cc1
 : 89.4, 106.1, x, 100.3
> COc1ccc(CNC(=O)Cn2c3ccccc3c3nc(=O)cc(C)n32)cc1
 : 84.1, 107.5, x, 91.2
> CN(c1ccccc1C(=O)NCC1CCCO1)S(C)(=O)=O (stereo unspecified)
 : 100.9, 96.7, -6.0, 96.2
> N=C1/C(=C2\Nc3ccccc3S2)CC(=O)N1Cc1ccco1
 : 1.7, x, 9.3, 41.1
> CCC1CCCCN1C(=O)Cn1c(SCc2cccc(Cl)c2)nc2ccncc21 (stereo unspecified)
 : 87.5, 104.5, x, 127.2
> COc1nc2c(c(=O)n(C)c(=O)n2C)n1Cc1ccccc1Cl
 : 82.0, 99.4, -10.4, 82.0
> CC1CC(C)CN(S(=O)(=O)c2ccc(C(=O)N3CCOCC3)cc2)C1 (stereo unspecified)
 : 99.8, 108.4, 2.5, 97.8
> Cc1ccccc1-n1ncc2c(=O)n(CCN3CCCCC3)cnc21
 : 88.5, 106.3, -33.8, 98.1
> Cc1ccc(C(c2nnnn2C2CCCC2)N(Cc2cccnc2)CC2CCCO2)cc1 (stereo unspecified)
 : 73.8, 102.4, -4.3, 95.0
> COc1ccccc1Nc1nc2ccc(Cl)cc2nc1-n1nc(C)cc1C
 : 89.9, 101.1, 3.7, 101.9
> CNC(=O)NC(=O)C(C)Sc1nc2ccccc2n1C1CCCCC1 (stereo unspecified)
 : 83.4, x, -14.3, 88.8
> O=S(=O)(Cc1ccc(Cl)cc1)N1CCc2ccccc21
 : 104.9, 106.8, -8.2, 109.4
> COc1ccc(Cn2c(SCc3cccc(C(F)(F)F)c3)nc3ncccc3c2=O)cc1
 : 94.1, 111.2, x, 106.2
> O=C(O)COc1ccc(CO)cc1Cl
 : 91.7, 100.1, -12.5, 90.5
> O=c1oc2c(CN3CCCCCC3)c(O)ccc2cc1-c1nc2ccccc2s1
 : x, -31.8*, -63.8, x
> COc1cc2ccccc2cc1C(=O)NC(C)Cc1ccccc1 (stereo unspecified)
 : 83.6, x, -14.3, 86.6
> COc1ccc(S(=O)(=O)N2CCc3ccccc32)cc1C(=O)NCC(c1ccco1)N1CCCC1 (stereo unspecified)
 : 97.1, x, -17.6, 97.4
> O=C(C1=C(N2CCCCC2)c2ccccc2S(=O)(=O)N1)c1ccccc1
 : 87.6, 94.8, -47.1, 81.9
> Cc1noc2nc(-c3ccc(Cl)cc3)cc(C(=O)O)c12
 : 85.6, x, -36.1, 98.0
> Cc1cc(=O)[nH]c(NNC(=S)Nc2ccc(Cl)c(F)c2)n1
 : 0.1, x, -28.8, 19.3
> Cc1c(Cl)cccc1NC(=O)CSC1=C(C#N)C(c2ccc([N+](=O)[O-])cc2)CC(=O)N1 (stereo unspecified)
 : x, 100.3, -25.5, x
> N#Cc1cccc2cccc(Sc3ccccc3)c12
 : 78.8, 101.2, -21.4, 91.6
> O=C(CSc1cn(CC(=O)N2CCCCCC2)c2ccccc12)Nc1ccccc1F
 : 88.5, 101.6, x, 116.1
> Cc1ccc2c(c1)CCCN2C(=O)c1cc(C(F)(F)F)cc(C(F)(F)F)c1
 : 97.0, 101.1, -7.6, 90.8
> Cc1cc(/C=N/N2CCN(C)CC2)c(C)n1-c1ccc(Cl)cc1
 : 64.2, x, -21.0, 79.2
> CCOC(=O)N1CCN(C(C)=C2C(=O)c3ccccc3C2=O)CC1
 : 84.3, 100.8, -55.1, 86.5
> O=C(CSc1nc2c(c(C(F)(F)F)n1)CCCC2)Nc1ccccc1
 : 102.4, 109.0, 11.0, 103.8
> COc1ccc(C2CC(c3cccs3)=NN2C(=O)c2ccc(Br)o2)cc1 (stereo unspecified)
 : x, 104.9, -7.9, x
> Cc1ccsc1CN(C(=O)COc1ccc(Cl)cc1)C1CCS(=O)(=O)C1 (stereo unspecified)
 : 76.5, 99.4, -11.4, 121.4
> COc1cccc(NC(CNS(=O)(=O)c2ccc(Cl)cc2)c2ccccc2)c1 (stereo unspecified)
 : 67.7, 108.2, -0.9, 100.0
> CC(C)(C)n1nnnc1CN1CCC(NC(=O)Nc2ccc(F)cc2)CC1
 : 78.3, 108.8, 4.5, 101.0
> CCC(=O)N1CCc2cc(S(=O)(=O)NC(C(=O)NCCc3ccc(OC)c(OC)c3)C(C)C)ccc21 (stereo unspecified)
 : 100.8, 107.9, 9.4, 82.4
> Cc1cc(=O)oc2c1ccc1oc(/C(=N/O)c3ccccc3)c(C)c12
 : 88.0, 99.5, x, 98.9
> N#Cc1ccccc1Cn1c(=O)n(-c2ccc(CC(=O)NCc3ccco3)cc2)c(=O)c2sccc21
 : 84.9, 100.6, -0.4, 95.0

As a working copy, 6 of the compounds above.
Every second line gives: Sa growth 42C second temp, GIV-Gai inh, HCMV NEC inh, Sa growth 42C
> Cc1ccsc1CN(C(=O)COc1ccc(Cl)cc1)C1CCS(=O)(=O)C1 (stereo unspecified)
 : 76.5, 99.4, -11.4, 121.4
> COc1cccc(NC(CNS(=O)(=O)c2ccc(Cl)cc2)c2ccccc2)c1 (stereo unspecified)
 : 67.7, 108.2, -0.9, 100.0
> CC(C)(C)n1nnnc1CN1CCC(NC(=O)Nc2ccc(F)cc2)CC1
 : 78.3, 108.8, 4.5, 101.0
> CCC(=O)N1CCc2cc(S(=O)(=O)NC(C(=O)NCCc3ccc(OC)c(OC)c3)C(C)C)ccc21 (stereo unspecified)
 : 100.8, 107.9, 9.4, 82.4
> Cc1cc(=O)oc2c1ccc1oc(/C(=N/O)c3ccccc3)c(C)c12
 : 88.0, 99.5, x, 98.9
> N#Cc1ccccc1Cn1c(=O)n(-c2ccc(CC(=O)NCc3ccco3)cc2)c(=O)c2sccc21
 : 84.9, 100.6, -0.4, 95.0

Next part:
Every second line gives: Sa growth 42C second temp, GIV-Gai inh, HCMV NEC inh, Sa growth 42C
> CCN1C(=O)N(COC(C)=O)C2C1N(CC)C(=O)N2COC(C)=O (stereo unspecified)
 : 78.4, 106.2, -12.4, 98.3
> FC(F)(F)c1ccn(-c2nc(-c3ccccc3)ns2)n1
 : 93.6, 105.0, x, 110.6
> CS/C(Nc1ccc(C)c(F)c1)=C(\C#N)c1ccccn1
 : 83.4, 100.0, -3.8, 85.1
> CC1CCc2c(sc3nnn(Cc4ccc(F)cc4)c(=O)c23)C1 (stereo unspecified)
 : 85.4, 101.1, -22.9, 109.2
